Compound activity (PubChem BioAssay)
Ecoli growth – blocks Escherichia coli growth. OD600, 23 h; active compounds read low. OD600 absorbance (no concentration beside the values). actives 0.21% (n = 330,000);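 active = OD600 absorbance below the run mean of sample wells minus 3.6 SD, in any replicate, cut at about 0.56 in these data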;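 note: stock transfer was 300 nL into about 60 µL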
UCH37 DUB inh – inhibitors of human deubiquitinating enzyme UCH37; inhibition, % (concentration not given with the values); actives 0.33% (n = 330,000); purified proteasome/UCH37, Ub-AMC cleavage fluorescence;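 active = mean of two replicates above 20%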;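 note: 0% = compound-free wells with enzyme and 100% = wells lacking proteasome; stock transfer was 100 nL into about 20 µL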
Target sequence (Q9Y5K5 whole entry, looked up): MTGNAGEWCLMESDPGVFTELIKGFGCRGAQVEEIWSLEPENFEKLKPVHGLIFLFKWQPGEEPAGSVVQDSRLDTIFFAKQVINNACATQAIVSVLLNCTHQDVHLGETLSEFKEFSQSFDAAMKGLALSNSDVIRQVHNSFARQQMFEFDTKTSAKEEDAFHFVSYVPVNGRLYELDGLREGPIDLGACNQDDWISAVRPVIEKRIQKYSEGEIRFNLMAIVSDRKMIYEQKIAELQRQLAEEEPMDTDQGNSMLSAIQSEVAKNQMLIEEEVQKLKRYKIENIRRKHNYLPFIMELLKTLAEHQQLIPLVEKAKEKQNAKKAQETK
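Material: Human UCH37 enzyme supplied as purified proteasome complex | Schedule: 30 min compound-proteasome preincubation then 25 min substrate reaction, room temperature | Detection: AMC fluorescence from Ub-AMC cleavage, excitation 355 nm, emission 460 nm | Benchmarks: Wells without proteasome as full block, compound-free enzyme plus substrate as uninhibited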
Bfl-1 A1 inh – inhibitors of the anti-apoptotic protein A1, read as caspase activation; caspase activation, % (test concentration not listed); actives 0.066% (n = 330,000); MEF A1-2A-BIM cells, Caspase-Glo 3/7 luminescence, 3 h; percent of clofoctol response, vehicle zero;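 active = over half of replicate activation scores above 10%, or exactly half above 10 with the replicate mean above 10; inconclusive = replicate mean below 10 yet half the replicates above 10; inactive = over half of replicates below 10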;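 note: wells of about 30 µL received 50 nL stock; many hits fall short of the cut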
LANA-H2B inh – blocks KSHV LANA binding to histone H2A/H2B; Q9QR71; AID 2629; actives 0.6% (n = 320,000); inhibition, % (concentration not given with the values); cell-free LANA-H2A/H2B peptide, fluorescence polarization; in the data active = inhibition mostly above about 10%, no sharp cut-off; inactive = mostly below about 6.7%;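 note: stock transfer was 7.5 nL into about 10 µL; 0% = median of vehicle wells and 100% = median of positive control wells; one replicate is shown; the record names a cut of 25% in any replicate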
* marks the source's active call; other numbers are inactive results; ? = inconclusive; / = not tested or not shown; & = joins results of further samples. Some of the compounds tested; rates above refer to the full screens.

SMILES	Ecoli growth	UCH37 DUB inh	Bfl-1 A1 inh	LANA-H2B inh
O=C1NC(Cc2ccc(O)cc2)c2nc3ccc(Cl)cc3c(=O)n2-c2ccccc21 (stereo not given)	/	/	?	-1.7
O=C(CC(=O)c1ccccc1[N+](=O)[O-])c1ccccc1	/	/	0.8	1.0
COC(C[C@@H]1O[C@H]1[C@H](O)[C@@H](C)OCc1ccccc1)OC	/	/	-0.9	3.7
Cn1c(SCC(=O)N=Nc2c(O)[nH]c3ccccc23)nc2ccccc21	/	/	0.4	-3.2
COc1ccc(N=CC2=C(Nc3ccc(OC)cc3)c3c(C)nn(-c4ccccn4)c3CC2)cc1	/	/	-0.4	60*
Cc1ccc2c(c1)-n1c(nc3ccccc3c1=O)C(CC(C)C)NC2=O (stereo not given)	/	/	0.3	1.0
COc1ccc(C=NNC(=O)COc2ccc(Cl)cc2Cl)c(C(=O)O)c1OC	/	1.5	/	/
O=C(NN=Cc1cn(CCOc2ccccc2)c2ccccc12)c1ccncc1	/	6.1	/	/
O=C(CCCCO)CCCCCCCCC1NC(CO)C(O)C1O[C@@H]1OC(CO)C(O)C(O)C1O (stereo not given in full)	/	1.8	/	/
CC1CCCC(=NNc2ccc(Cl)c(C(=O)O)c2)C1 (stereo not given)	/	1.8	/	/
O=C(NN=Cc1ccc[nH]1)c1ccccc1[N+](=O)[O-]	/	0.3	/	/
O=C(CCCOc1ccc(Cl)cc1Cl)NN=Cc1ccccc1O	/	-1.0	/	/
CON=C(C(=O)N[C@@H]1C(=O)N2C(C(=O)O)=C(COC(N)=O)CS[C@H]12)c1ccco1	/	-2.8	/	/
COc1ccc(O[C@H]2C=C[C@@H](c3ccccc3)O[C@@H]2COC(=O)CCC(C)=NO[C@@H](C)CN2CCCCc3nc(C)c(C)cc32)cc1	/	-4.1	/	/
Cc1cccc(C(=O)NN=CC(C)Cc2ccc3c(c2)OCO3)c1 (stereo not given)	/	-0.3	/	/
COc1cc(C=NNS(=O)(=O)c2ccc3ccccc3c2)ccc1OCCN1CCOCC1	/	2.4	/	/
COc1cc(C=NNC(=O)/C(=C/c2ccccc2)CCO)ccc1O	/	4.0	/	/
C/C(C=NN1C(=O)CSC1=S)=C\c1ccccc1	/	13	/	/
CC(CCN1CCc2nc(-c3ccccc3)c(-c3ccccc3)cc2C1)=NOC[C@@H](C)[C@H](OCc1ccccc1)C(C)C	/	3.3	/	/
S=c1[nH]nc(-c2ccccn2)n1N=Cc1ccc(Br)s1	/	3.2	/	/
CC(/C=C/c1ccccc1)=NNC(=O)CNC(=O)c1ccccc1F	/	3.8	/	/
Cc1ccccc1OCC(=O)NN=Cc1cn(Cc2ccccc2)c2ccccc12	/	-2.2	/	/
CCOC(=O)c1c(NC(=O)C(=O)NN=Cc2ccccc2OC)sc2c1CCCCC2	/	-7.7	/	/
COc1ccc2cc(C=NNC(=O)c3c(Cl)cnn3C)c(Cl)nc2c1	/	-2.9	/	/
Cc1[nH]c(=O)[nH]c(=O)c1C=NNC(=O)[C@H](C)NC(=O)OC(C)(C)C	/	4.5	/	/
O=C(COCC(=O)NN=Cc1ccc(F)cc1)NN=Cc1ccc(F)cc1	/	5.9	/	/
C/C(C=NN1CCN(Cc2ccc(C)cc2)CC1)=C\c1ccccc1	/	-0.8	/	/
COc1cc(C(=O)Oc2ccccc2C=NNC(=O)c2ccc(C)c(Cl)c2)cc(OC)c1OC	/	1.9	/	/
COc1cccc(C=NNC(=O)c2c(C)nc3ccc(Br)cn23)c1O	/	46*	/	/
CC(=NNC(=O)c1ccc(NS(=O)(=O)c2cccs2)cc1)c1ccc(Cl)cc1	/	6.2	/	/

Structures listed so far with a Cl atom (seven):
SMILES	Ecoli growth	UCH37 DUB inh	Bfl-1 A1 inh	LANA-H2B inh
O=C1NC(Cc2ccc(O)cc2)c2nc3ccc(Cl)cc3c(=O)n2-c2ccccc21 (stereo not given)	/	/	?	-1.7
COc1ccc(C=NNC(=O)COc2ccc(Cl)cc2Cl)c(C(=O)O)c1OC	/	1.5	/	/
CC1CCCC(=NNc2ccc(Cl)c(C(=O)O)c2)C1 (stereo not given)	/	1.8	/	/
O=C(CCCOc1ccc(Cl)cc1Cl)NN=Cc1ccccc1O	/	-1.0	/	/
COc1ccc2cc(C=NNC(=O)c3c(Cl)cnn3C)c(Cl)nc2c1	/	-2.9	/	/
COc1cc(C(=O)Oc2ccccc2C=NNC(=O)c2ccc(C)c(Cl)c2)cc(OC)c1OC	/	1.9	/	/
CC(=NNC(=O)c1ccc(NS(=O)(=O)c2cccs2)cc1)c1ccc(Cl)cc1	/	6.2	/	/

The listing continues.
SMILES	Ecoli growth	UCH37 DUB inh	Bfl-1 A1 inh	LANA-H2B inh
CCOC(=O)c1c(N=CC2=C(O)CCCC2=O)sc(C)c1C	/	1.8	/	/
CC(=NNC(=O)C(=O)Nc1cccc(Cl)c1C)c1ccncc1	/	-0.3	/	/
CCCNC(=O)OC[C@H]1O[C@H](CCON=C[C@@H](OC)[C@H](C)/C=C/CC(=O)OC)C=C[C@@H]1Oc1ccc(OC)cc1	/	3.3	/	/
CCCS/C(N)=N/N=Cc1ccccc1O	/	1.1	/	/
COC(=O)CCC/C=C1/SCC(NC(=O)c2ccccc2)C1=NO (stereo not given)	/	-0.3	/	/
Cc1csc(N=Cc2ccc([N+](=O)[O-])cc2)n1	/	4.1	/	/
O=C(NN=Cc1sc(N2CCOCC2)nc1-c1ccccc1)c1ccccc1O	/	-1.8	/	/
COC(=O)C(=NNc1ccccc1C)N1CCCc2ccccc21	/	0.9	/	/
Cc1ccc(-c2cc(C(=O)NN=C/C=C/c3ccccc3)n[nH]2)o1	/	-1.6	/	/
COC(=O)[C@@H]1CC[C@H](C)[C@@H](c2ccc(C)cc2)N1C(=O)c1ccc(C=NOC[C@@H](O)[C@H]2O[C@@H]3OC(C)(C)O[C@@H]3[C@H]2O)cc1	/	3.0	/	/
O=C(NN=C/C=C/c1ccccc1)c1ccncc1	/	3.4	/	/
O=C(C(=NN=Cc1ccc(O)c(O)c1O)c1ccccc1)c1ccccc1	/	4.1	/	/
CCN(CC)c1ccc(C=NNC(=O)c2cccc(S(=O)(=O)Nc3ccccc3OC)c2)c(O)c1	/	-9.9	/	/
O=C1CCCCC=CCC(CC(=O)N(CCO)Cc2ccccc2)C(=O)NCCO1 (stereo not given)	0.67	/	/	/
COc1cccc(C2=CC(=O)CC(c3ccc4c(c3)OCO4)C2)c1OC (stereo not given)	0.68	/	/	/
Cc1ccccc1C=CC(=O)c1ccc([N+](=O)[O-])o1	0.52	/	/	/
O=c1nc2cccc3c2=c(c1=C(O)c1ccccc1)c1ccccc1c3=O	0.75	/	/	/
OCCC1CC(O)C(O)[C@]2(OCCc3ccccc32)O1 (stereo not given in full)	0.64&0.69&0.66	/	/	/
COc1ccc(C2CC(=O)C=C(c3cccc(Br)c3)C2)cc1OC (stereo not given)	0.66	/	/	/
CCN1C(=O)C2C(c3ccc(-c4ccc(OC)cc4)cc3)N3CCC[C@@]3(C(=O)OC)C2C1=O (stereo not given in full)	0.65&0.69	/	/	/
COc1ccc(C2CC(=O)C=C(C=Cc3ccc(C(F)(F)F)cc3)C2)cc1 (stereo not given)	0.7	/	/	/
CC(C)CC(NC(=O)c1nc[nH]c1C(=O)NCC(=O)OCc1ccccc1)C(=O)OCc1ccccc1 (stereo not given)	0.69	/	/	/
COc1cc2ccc(=O)oc2c(OC2OC(CO)C(O)C(O)C2O)c1O (stereo not given)	0.68	/	/	/
CC(C)(C)N1C(=O)C2C(c3ccc(Br)cc3)N3C(=O)N(c4cccc(Cl)c4)C(=O)[C@@]3(C)C2C1=O (stereo not given in full)	0.7	/	/	/
CCN1C(=O)C2C(c3ccc(C)cc3)N3C(=O)N(c4ccc(OC)cc4)C(=O)[C@@]3(CC)C2C1=O (stereo not given in full)	0.7	/	/	/
CC1NC(=CC(=O)c2ccccc2)N(O)C1(C)C (stereo not given)	0.67	/	/	/
COC(=O)C1=C(C)N(CC2CC2)C(=O)NC1c1ccc(Br)cc1 (stereo not given)	0.63	/	/	/
N=C1C(=Cc2ccc(OC(=O)c3ccc(F)cc3)cc2)C(=O)N=C2SC(N3CCCC3)=NN12	0.69	/	/	/
CC(C)(C)OC(=O)NCCCCC(NC(=O)c1nc[nH]c1C(=O)N1CCN(C(=O)OC(C)(C)C)CC1)C(=O)OC(C)(C)C (stereo not given)	0.71	/	/	/
O=C(NCc1ccccc1)C1=CC(c2csc3ccccc23)CC(OCCCCO)O1 (stereo not given)	0.68&0.72	/	/	/

Some entries already given, limited to Ecoli growth.
| SMILES | Ecoli growth |
| --- | --- |
| N=C1C(=Cc2ccc(OC(=O)c3ccc(F)cc3)cc2)C(=O)N=C2SC(N3CCCC3)=NN12 | 0.69 |
| CCN1C(=O)C2C(c3ccc(C)cc3)N3C(=O)N(c4ccc(OC)cc4)C(=O)[C@@]3(CC)C2C1=O (stereo not given in full) | 0.7 |

More compounds:
SMILES	Ecoli growth	UCH37 DUB inh	Bfl-1 A1 inh	LANA-H2B inh
NCCCCC1CNC(=O)C(=O)N1CCc1cccc2ccccc12 (stereo not given)	0.66	/	/	/
O=C(NC1CCC(=O)N(CCC(Sc2ccc(Br)cc2)c2ccccc2)CC1)OCc1ccccc1 (stereo not given)	0.68	/	/	/
COC(=O)CN1C(=O)C2C(c3ccc(C)o3)N3C(=O)CN(CCO)C(=O)[C@@]3(C)C2C1=O (stereo not given in full)	0.66	/	/	/
Cc1ccc(N2C(=O)N3C(c4cccc(C)c4)C4C(=O)N(Cc5ccccc5)C(=O)C4[C@]3(C)C2=O)cc1 (stereo not given in full)	0.7	/	/	/
O=C(C=CNc1ccc(F)c(Cl)c1)c1ccco1	0.71	/	/	/
CCC(C)C1CN(C(C)CN2CCCC2CN2C(N)=NCC2Cc2ccccc2)C(=N)N1CCc1ccc(Cl)c(Cl)c1 (stereo not given)	0.57	/	/	/
O=C(C=Cc1ccco1)Nc1ccccc1N1CCCCC1	0.71	/	/	/
O=C1NCC(CC2CCCCC2)N(CC2CCCCC2)C1=O (stereo not given)	0.69	/	/	/
CCC(C)C(N)c1cn(C(CCCN=C(N)N)C(=O)N2CCNCC2)nn1 (stereo not given)	0.7	/	/	/
CN(C)C(=O)C1CC1C(NC(=O)OCc1ccccc1)c1ccccc1 (stereo not given)	0.71	/	/	/
COC(=O)C1=C(C)N(Cc2ccccc2)C(=NCCc2c[nH]c3ccccc23)NC1c1cccc(C(F)(F)F)c1 (stereo not given)	0.65	/	/	/
Cc1cc(CNC(=O)C2CC2C(NP(=O)(c2ccccc2)c2ccccc2)c2ccccc2)nn1C (stereo not given)	0.67	/	/	/
CC1CC[C@]2(C(=O)OC3OC(CO)C(O)C(O)C3O)CC[C@]3(C)C(=CCC4[C@@]5(C)CCC(OC6OCC(O)C(OC7OC(CO)C(O)C(O)C7O)C6O)C(C)(C)C5CC[C@]43C)C2[C@]1(C)O (stereo not given in full)	0.69	/	/	/
C=C1CCN(C(Cc2ccccc2)C(=O)Nc2ccc(OC)cc2)S(=O)(=O)c2ccccc21 (stereo not given)	0.72	/	/	/
O=C(C=Cc1ccco1)N1CCCC(c2ccccc2)C1 (stereo not given)	0.72	/	/	/
